# Assay outcomes: PubChem BioAssay, several laboratories
# Autofluor counter – compound fluorescence in toxin protease inhibitor counterscreen; compound autofluorescence counterscreen, microsphere flow cytometry; active compounds read high; hit rate 3.1% among 360,000; fluorescence intensity (no concentration beside the values);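 active means at least 3 SD above the mean of all compounds, about 16000 in these data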;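 further: 100 nL of 1 mM stock went into each well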
# ugtP null kill – compounds lethal to S. aureus RN4220 ugtP deletion mutant; growth inhibition, % (test concentration not listed); AID 1259309; OD600 growth, 16 h; some inactives read as strong as hits; hit rate 0.54% among 330,000;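 active means z-score under -3 and OD600 up to 0.15 on both plates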;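 further: plate controls were untreated wells for no effect and antibiotic for full effect; wells of about 80 µL received 100 nL stock; the first replicate is given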
# Mtb hypoxia inh – inhibitors of hypoxia-regulated fluorescent reporter in Mycobacterium tuberculosis | M. tuberculosis hypoxia-regulated fluorescent reporter, fluorescence | fluorescence inhibition, % (test concentration not listed) | hit rate 0.1% among 300,000;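 active means 35 to 45% if threefold the growth effect, above 45% if 1.5-fold the growth effect; inactive means the rest, general growth blockers included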;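 further: wells of about 50 µL received 100 nL stock; 0% = vehicle wells and 100% = reference inhibitor wells; whole bacteria with a GFP reporter of the hypoxia response; strong numbers were not always called active; many hits fall short of the cut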
# BJeLR lethal – kills HRASV12-expressing BJeLR cells; AID 1554; hit rate 0.17% among 300,000; inhibition, % (no concentration beside the values); BJeLR (HRASV12) viability, CellTiter-Glo ATP luminescence, 48 h; reference of the scale not given here;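 active means replicate mean above 50%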;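 further: 50 nL library stock added to about 25 µL; numbers are from one replicate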
# RN4220 kill – kills Staphylococcus aureus RN4220. hit rate 0.33% among 330,000. inhibition, % (concentration not given with the values). S. aureus RN4220 growth, OD600, 16 h;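 active means z-score of -3 or lower and OD600 up to 0.18 on both plates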;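 further: plate controls were untreated cells for no effect and reference antibiotic for full effect; stock transfer was 100 nL into about 80 µL; one replicate is shown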
# PrP 5UTR inh – suppresses PrP 5' UTR mRNA reporter expression | cell-based PrP 5' UTR mRNA reporter, plate reader | inhibition, % (concentration not given with the values) | hit rate 0.35% among 340,000;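 active means every replicate at 50% or more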;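 further: 0 = median of the neutral control wells; tested in H4 reporter cells; numbers are from one replicate; inactives centre near -14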
# Mtb hypoxia inh growth – further read-out of Mtb hypoxia inh, marked with its call; growth inhibition, %; measured here: M. tuberculosis growth (absorbance);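 0% = vehicle and 100% = reference antibiotic; read after six days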
# * marks the source's active call; other numbers are inactive results; x = not tested or not shown.
SMILES,Autofluor counter,ugtP null kill,Mtb hypoxia inh,Mtb hypoxia inh growth,BJeLR lethal,RN4220 kill,PrP 5UTR inh
CC(CN1CCCCC1)OC(=O)CCc1ccccc1 (centres undefined),4040,0,-15,-8,-7,3.2,-26
Cc1ccc(S(=O)(=O)Nc2c(NC3CCCCC3)c3ccccc3oc2=O)cc1C,5517,-18,-4,1,-3,-0.3,-11
COc1ccccc1-n1c(SCC(=O)NC2CCS(=O)(=O)C2)nc2ccccc2c1=O (centres undefined),6289,12,-1,0,x,5.2,-13
Cc1ccc(NC(=O)CN2C(=O)c3ccccc3S2(=O)=O)c(C)c1,3843,0,-2,2,-6,0.4,-14
CCOC(=O)c1nc(C)n(-c2ccc(Cl)cc2)n1,10495,4,1,4,-13,5.1,-27
CCOc1ccc(N(CC(=O)Nc2cccc(Cl)c2)S(=O)(=O)c2c(C)noc2C)cc1,3980,-15,x,x,10,16,11
COc1ccc(C(=O)OCC(=O)Nc2ccc3c(c2)OCO3)cc1S(=O)(=O)N1CCOCC1,4830,-1,3,3,x,2.3,-24
Nc1cccc(CN2CCCC2)c1,4334,-3,-2,12,-1,4.4,-21
CCOc1ccc(NC(=O)CC2C(=O)N(c3ccccc3)C(=O)N2CCOC)cc1 (centres undefined),5596,1,2,10,7,-7.6,-11
COc1cccc(CNC(=O)c2nnn(CC(=O)Nc3cc(Cl)ccc3C)c2N)c1,4233,x,x,x,4,x,-1
COc1ccc(S(=O)(=O)Nc2cc3c4c(c2)CCC(=O)N4CCC3)cc1,x,4,-2,-1,8,8.1,-15
Cc1ccccc1Nc1nnc(SCC(=O)NCc2ccco2)s1,3356,-2,3,-6,x,5.3,-18
CC1(C)Cc2ccccc2-c2nc3n(c(=O)c21)CCCS3,5587,1,-7,-2,5,5.1,-23
Cc1nn(Cc2ccc(F)cc2)c(C)c1NC(=O)c1cnn2c1NC(c1cccs1)CC2C(F)(F)F (centres undefined),22509*,3,3,5,8,2.9,-9
CCN1C(=O)C(CC(=O)Nc2ccc(OC)cc2)N(Cc2ccc3c(c2)OCO3)C1=S (centres undefined),2473,-9,1,8,0,7.5,-13

# Taken from the results shown for reference:
SMILES,Autofluor counter,ugtP null kill,Mtb hypoxia inh,Mtb hypoxia inh growth,BJeLR lethal,RN4220 kill,PrP 5UTR inh
CC1(C)Cc2ccccc2-c2nc3n(c(=O)c21)CCCS3,5587,1,-7,-2,5,5.1,-23
Cc1nn(Cc2ccc(F)cc2)c(C)c1NC(=O)c1cnn2c1NC(c1cccs1)CC2C(F)(F)F (centres undefined),22509*,3,3,5,8,2.9,-9
CCN1C(=O)C(CC(=O)Nc2ccc(OC)cc2)N(Cc2ccc3c(c2)OCO3)C1=S (centres undefined),2473,-9,1,8,0,7.5,-13

# Going on with the list:
SMILES,Autofluor counter,ugtP null kill,Mtb hypoxia inh,Mtb hypoxia inh growth,BJeLR lethal,RN4220 kill,PrP 5UTR inh
NC(=NOC(=O)CCCOc1ccccc1)c1ccc(Br)cc1,x,0,-4,-2,x,4.4,x
Cn1c(CCNC(=O)c2ccco2)nc2cc(NC(=O)NC3CCCCC3)ccc21,6828,-3,1,4,-8,-1.8,-19
COCCNC(=O)c1cc(-c2ccccc2)nn1CC1CC(c2cccc([N+](=O)[O-])c2)=NO1 (centres undefined),4078,-14,9,4,-11,0.5,-12
Cc1cc(C)cc(OCC(=O)N/N=C/c2ccc([N+](=O)[O-])o2)c1,4185,x,x,x,-11,x,-29
COc1ccc(CCN(CC(=O)NC2CCCC2)C(=O)Cn2nnc(-c3ccc(C)o3)n2)cc1OC,2214,-4,10,-3,-5,4.1,-16
N#CCCn1c(=S)[nH]c2ccccc21,6407,11,13,2,-12,4.3,-25
NC(=O)C1CC2(CC(c3cccc(NC(=O)CC(c4ccccc4)c4ccccc4)c3)=NO2)CN1C(=O)c1ccccc1C(=O)c1ccccc1 (centres undefined),x,9,-6,7,x,-0.2,x
COCCNc1cc(C)c(C#N)c2nc3ccccc3n12,4542,1,x,x,9,-8.0,6
CCN(CC)CCNCC(O)(c1ccc(Cl)cc1)c1ccc(Cl)cc1,4559,-2,14,-1,7,-1.7,-22
COc1ccc(-c2cc3c(=O)n(CC(=O)Nc4ccc(Cl)cc4)ncn3n2)cc1,5178,2,0,1,0,4.2,-18
CCOC(=O)c1cc(NC(=O)N(CC)CC)c(C)nc1C,24580*,-1,5,5,-1,1.0,-19
O=c1nc2ccc(Cl)cn2c2ccc(S(=O)(=O)N3CCOCC3)cc12,5461,7,-3,-5,0,1.7,-24
CCOC(=O)/C(C#N)=C/c1cc2ccccc2nc1N1CCCCC1,2550,19,-1,-3,-4,2.3,-4
COCCOC(=O)c1c(C)oc2ccc(NS(=O)(=O)c3ccccc3)cc12,9483,0,-5,8,-5,9.6,-3
C=C(C)c1cccc(C(C)(C)NC(=O)NC2CC(C)(C)NC(C)(C)C2)c1,2273,4,4,13,8,3.4,5
CCOC(=O)/C(C#N)=C/c1c(Oc2cccc(C)c2)nc2ccccn2c1=O,3458,9,3,11,1,5.0,-18
COC(=O)c1ccc(/C=C/C(=O)OCC(=O)Nc2ncc(Cl)cc2Cl)cc1,8889,-6,-2,-3,x,5.9,-22
CC1Cc2c([nH]c3ccccc23)C2c3ccccc3CN12 (centres undefined),3910,13,-1,1,0,-1.2,-14
CCOC(=O)N1CCN(C(=O)CSc2nc(=O)n3ccc(C)cc3n2)CC1,5823,-8,-6,-4,-1,-5.2,-9
COc1ccc(NC(=S)N2c3ccccc3CC2C)cc1OC (centres undefined),4249,7,11,10,-3,1.1,-31
Cn1cc(C(=O)OCC2CCN(CCNS(C)(=O)=O)CC2)c2ccccc21,5290,-2,6,-2,-3,5.4,5
COc1cc(/C=C2\C(=N)N3N=C(N4CCOCC4)SC3=NC2=O)ccc1OC(=O)c1ccccc1,4413,4,10,7,5,-3.3,-13
C/C(=N\NC(=O)c1nn(C)c(C)c1Br)c1cccc(NC(=O)c2ccoc2C)c1,7745,x,x,x,9,x,-26
COc1cc(OC)c2c(c1)OC(=O)CC2c1ccc2c(c1)OCO2 (centres undefined),3913,-3,0,5,x,5.8,37
CC(=O)c1ccc(S(=O)(=O)N2CCC3(CC2)CC(=O)c2ccccc2O3)cc1,5864,7,-3,-5,-4,6.3,-15
CC(C)(C)NC(=O)COC(=O)c1ccccc1OCC(=O)Nc1ccc(Br)cc1,2313,-7,14,8,x,4.9,-30
COCCCn1c(SCC(=O)NC(C)(C)C)nnc1-c1cccs1,4387,14,14,7,3,3.5,-6
CN(c1cccc(NC(=O)Nc2ccc(Cl)cc2)c1)S(C)(=O)=O,16905*,-8,11,2,-6,-0.5,-52
CCN(CC)C(=O)CSc1nnc(-c2cnccn2)n1-c1ccccc1,9424,-7,7,4,8,-1.6,-10
CCCc1cc(-c2nc(N)ncc2-c2csc(C)n2)c(O)cc1OC,2491,-5,9,15,-4,4.6,3
CC(C)C(=O)Nc1cccc(NC(=O)c2ccc([N+](=O)[O-])cc2Cl)c1,2491,13,13,-2,4,-2.5,-13
O=C1CSc2ccc(S(=O)(=O)NCc3ccccc3Cl)cc2N1,5547,-4,-6,-2,-2,15,-25
O=C(Nc1ccc(Cl)c(C(F)(F)F)c1)NC1CC2CCCC(C1)N2C1CC1 (centres undefined),2317,21,x,x,6,3.8,52
CCOc1cc(C=NNC(=O)CCn2nnc3ccccc32)ccc1O,x,8,-7,-1,x,1.5,x
COc1cc(/C=N\Nc2nncn2N)ccc1OC(C)=O,3589,x,x,x,-23,x,3
CC(C)(C)C1CCC(=O)N(C(CN=[N+]=[N-])Cc2ccccc2)CC1 (centres undefined),x,1,2,4,x,6.8,x
COc1ccc(C=Cc2ccccc2)cc1C1C2C=CCC(C)C2C(=O)N1Cc1ccccc1 (centres undefined),x,0,13,10,x,-6.0,x
O=C(CN1CCN(c2ccccc2)CC1)N1CCc2[nH]c3ccccc3c2C1,4066,-4,x,x,x,-1.3,-11
CCOC(=O)CNS(=O)(=O)c1ccc(S(=O)(=O)N2CCCC2)cc1,8332,-8,4,5,-4,15,-35
COc1ccc(-c2csc(=Nc3ccccc3)n2CCO)cc1,10795,-2,-1,4,3,11,-59
Cc1ccc(C)c(C(=O)COC(=O)C(C)N2C(=O)C3C4CCC(C4)C3C2=O)c1 (centres undefined),6689,1,3,-11,1,3.1,-11
O=C(CS(=O)(=O)c1cn(Cc2ccc(Cl)cc2)c2ccccc12)N1CCCC1,6089,48,1,2,10,34,-14
CCOc1cc(CNc2cccc3ccccc23)cc(Br)c1OCC(=O)NC(C)(C)C,8529,-10,0,1,-12,-0.3,-27
O=C(Nc1ccccc1F)Nc1ccccc1OC(F)F,2029,-3,6,3,4,0.3,-26
NC(=NOC(=O)c1ccccc1Cl)c1cccc([N+](=O)[O-])c1,x,-2,-6,-3,x,2.9,x
Cc1ccccc1NS(=O)(=O)c1ccc2c(c1)NC(=O)CCS2,6127,77,20,10,2,89*,4
COc1ccccc1-c1noc(CSc2nc(C)cc(=O)[nH]2)n1,2405,2,2,-1,-1,8.8,-28
CCOC(=O)N1CCN(C(=O)/C(=C/c2ccc(OC)c(OC)c2)NC(=O)c2ccccc2)CC1,4533,12,5,1,6,5.0,-33
Cc1ccc(S(=O)(=O)CCC(=O)OCC(=O)Nc2cc(S(=O)(=O)N3CCOCC3)ccc2C)cc1,x,2,5,1,5,2.1,-8
CCc1nc(-c2ccccc2O)n(-c2ccccc2)n1,9394,2,6,7,-3,6.5,-5
Cc1cc(OCCCC(=O)NCCc2ccccn2)ccc1Cl,3979,11,-3,2,3,7.1,-22
Cc1ccc(/C(O)=C2\C(=O)C(=O)N(C)C2c2ccccc2[N+](=O)[O-])cc1 (centres undefined),3363,6,13,5,10,3.0,-41
CC1=CCC2C(=O)N(c3ccc(N4CCOCC4)cc3)C(=O)C2C1 (centres undefined),6008,10,17,2,-13,3.4,-19
COc1ccc(C2(c3ccc(OC)cc3)NC(=O)N(CC(=O)Nc3ccc(OC(F)F)cc3)C2=O)cc1,4356,-16,-11,-4,-1,-10,-8
O=C1CC(C(=O)Nc2ccc(Cl)c(Cl)c2)S/C(=N\N=Cc2ccco2)N1 (centres undefined),x,-15,16,5,x,1.6,x
Cc1cccn2c(=O)c(/C=C(\C#N)C(=O)NCc3ccccc3)c(N3CCC(C(N)=O)CC3)nc12,5481,9,3,-13,-9,1.6,-21
O=C(CN1C(=O)C2C3C=CC(C3)C2C1=O)NCc1ccco1 (centres undefined),2830,-3,5,6,2,-14,-37
COc1ccc2[nH]c3c(c2c1)CCN1C(=O)C(CC(=O)NCCN2CCOCC2)C[C@H](C(=O)N2CCCCC2)[C@@]31CCc1ccccc1 (some centres undefined),3464,-1,-12,0,x,-2.9,4
COc1ccccc1CNC(=O)C1=C(C)C(=O)OC12CCC(C)CC2 (centres undefined),6351,-4,8,1,-5,-9.3,-86
CCOCCCn1c(=N)c(C(=O)NCCN2CCOCC2)cc2c(=O)n3cccc(C)c3nc21,22990*,-7,3,7,x,-1.5,-26

# Following part:
SMILES,Autofluor counter,ugtP null kill,Mtb hypoxia inh,Mtb hypoxia inh growth,BJeLR lethal,RN4220 kill,PrP 5UTR inh
Cc1ccc(Cl)cc1NC(=O)CCCN1C(=O)c2cccnc2C1=O,4529,x,x,x,5,x,-9
CSCC[C@H](NC(=O)C1CCN(S(=O)(=O)c2ccc(C)cc2)CC1)C(=O)NC1CCS(=O)(=O)C1 (some centres undefined),2081,5,-5,-4,-7,-1.0,-1
CC1C(C)N(C(=O)CCl)c2ccccc2N1C(=O)CCl (centres undefined),4299,6,x,x,x,4.5,-17
COc1ccccc1C1C(C(=O)c2cc3ccccc3o2)=C(O)C(=O)N1CCN1CCOCC1 (centres undefined),4267,0,5,-3,4,10,-16
CC1(C)OC2OC(C3COC(=O)O3)C(OC(=O)c3ccccc3)C2O1 (centres undefined),4089,7,22,9,x,2.8,-20
O=C1c2ccccc2NC(c2ccc(-c3cccc([N+](=O)[O-])c3)o2)N1O (centres undefined),1947,-25,-11,-5,5,-7.2,-15
O=C(Nc1ccc(F)cc1F)c1cccn1-c1ncc(C(F)(F)F)cc1Cl,10426,9,3,1,5,4.2,-14

# Part of the list above, with two lines to a compound.
# Value order: Autofluor counter, ugtP null kill, Mtb hypoxia inh, Mtb hypoxia inh growth, BJeLR lethal, RN4220 kill, PrP 5UTR inh
COc1ccc(CCN(CC(=O)NC2CCCC2)C(=O)Cn2nnc(-c3ccc(C)o3)n2)cc1OC
  2214, -4, 10, -3, -5, 4.1, -16
N#CCCn1c(=S)[nH]c2ccccc21
  6407, 11, 13, 2, -12, 4.3, -25
